RE007 growth inh: less growth of the S. pombe RE007 Vpr strain; Potency, µM (top dose mostly 92.2 µM), inactives show at the highest dose activity change, negative = less growth; 360,000 tested, 0.21% active; S. pombe RE007 Vpr strain, BacTiter-Glo ATP luminescence, 24 h; control for the full effect not named in the record; AID 651644; active = well fitted falling curve with a large enough effect; inconclusive = small, poorly fitted or top-dose-only effect; inactive = no such curve, though single readings can be large or run the other way;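 also: % is scaled to controls: 0 for no effect and ±100 for the full control effect; nearly all actives have a fitted effect of over 50% in size; the assay follows cell death caused by Vpr and the record does not say whether a fall means rescue or toxicity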
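Fission yeast RE007 carrying one integrated HIV-1 vpr copy, seeded at OD 0.01 in PMG+AL medium with 23 nL pinned compound. Grown 24 h at 30 degrees; viability read by BacTiter-Glo luminescence after 5 min.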
LASV entry inh: blocks Lassa virus binding to or entry into cells; AID 540256; Potency, µM (doses to about 37.9 µM), for the others: top-dose activity change, negative = inhibition, actives largely listed as inhibitors; Lassa virus pseudotype entry inhibition, cell reporter; control for the full effect not named in the record; 300,000 tested, 1.2% active; active means well fitted inhibition curve with a large enough effect; inconclusive means small, poorly fitted or top-dose-only effect, or effect the other way; inactive means flat fitted curve, though single readings scatter; tested in HEK293 cells; also: % is scaled to controls: 0 for no effect and ±100 for the full control effect; nearly all actives have a fitted effect of over 50% in size; luciferase read-out
Cruzain inh noDet: blocks cruzain activity in detergent-free assay; P25779; 200,000 tested, 2.3% active; purified cruzain, Z-FR-AMC fluorescence, no detergent; Potency, µM, without a hit: max response, negative = inhibition, usual class: inhibitors; active = well fitted curve in the direction sought with a large enough effect; inconclusive = small, poorly fitted or top-dose-only effect, or another doubt; inactive = no such curve, though single readings can be large; an effect the other way counts as inactive or inconclusive;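 also: plate controls were enzyme without inhibitor for no effect and buffer without enzyme for full effect; nearly all actives have a fitted effect of over 40% in size; top concentration of the series not given in the record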
Target sequence (P25779 123-467 limits assumed): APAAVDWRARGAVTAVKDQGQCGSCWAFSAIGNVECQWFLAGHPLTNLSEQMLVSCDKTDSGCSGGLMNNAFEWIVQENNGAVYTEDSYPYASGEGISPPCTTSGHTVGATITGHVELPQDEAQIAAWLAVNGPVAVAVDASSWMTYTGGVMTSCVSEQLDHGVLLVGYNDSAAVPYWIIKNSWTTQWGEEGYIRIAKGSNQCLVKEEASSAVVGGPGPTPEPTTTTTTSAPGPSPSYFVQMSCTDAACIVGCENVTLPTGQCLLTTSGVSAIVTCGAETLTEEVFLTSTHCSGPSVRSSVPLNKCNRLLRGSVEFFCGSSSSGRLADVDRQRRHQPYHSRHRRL
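Purified cruzain at 1.5 nM, pre-incubated 15 min with compound at room temperature in 100 mM sodium acetate pH 5.5, 5 mM DTT, 0.00005% Triton X-100. Reaction started with 2 uM Z-FR-AMC; AMC fluorescence increase over 60 s gives rate.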
Marburg entry inh: inhibitors of Marburg virus binding or cell entry; Marburg virus pseudotyped entry inhibition, cell reporter; control for the full effect not named in the record; about a third of the inactives were read at about 46 µM; Potency, µM (series often up to 37.8 µM), for the others: at the top dose activity change, negative = inhibition, actives largely listed as inhibitors; 300,000 tested, 1.8% active; AID 540276; active = well fitted inhibition curve with a large enough effect; inconclusive = small, poorly fitted or top-dose-only effect, or effect the other way; inactive = flat fitted curve, though single readings scatter; tested in HEK293 cells; about a fifth of its hits are not listed in these tables; also: % is scaled to controls: 0 for no effect and ±100 for the full control effect; luciferase read-out
SARS PLP yeast: inhibitors of SARS-CoV papain-like protease in yeast | S. cerevisiae expressing SARS-CoV PLpro, growth rescue; control for the full effect not named in the record | Potency, µM (top dose mostly 32.9 µM), for the others: top-dose activity, positive = growth rescue | 330,000 tested, 0.19% active | AID 485353; also: 0% is about no effect; nearly all actives have a fitted effect of over 55% in size; growth read by luminescence after 48 h
Cruzain Triton: cruzain (T. cruzi) inhibition with detergent | P25779 | purified cruzain, Z-FR-AMC fluorescence, 0.01% Triton | 200,000 tested, 0.43% active | Potency, µM, for the others: max response, negative = inhibition, usual class: inhibitors; active = well fitted curve in the direction sought with a large enough effect; inconclusive = small, poorly fitted or top-dose-only effect, or another doubt; inactive = no such curve, though single readings can be large; an effect the other way counts as inactive or inconclusive;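 also: plate controls were neutral wells for no effect and buffer without enzyme for full effect; nearly all actives have a fitted effect of over 40% in size; top concentration of the series not given in the record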
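Purified cruzain (1.5 nM final) was preincubated with compounds for 15 min at room temperature in 100 mM sodium acetate pH 5.5, 5 mM DTT, 0.01% Triton X-100. Reaction started with 2 uM Z-FR-AMC; AMC fluorescence change over 60 s gave activity.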
StopGo reporter: FMDV 2A StopGo reporter, luciferase signal; 410,000 tested, 1.2% active; Potency, µM (titrated, usually from 57.9 µM), for the others: at the highest dose signal change, negative = less light; human cells with a luciferase reporter of 2A StopGo recoding; control for the full effect not named in the record; AID 1159524; active = well fitted falling curve with a large enough effect; inconclusive = small, poorly fitted or top-dose-only effect; inactive = no such curve, though single readings can be large or run the other way; tested in HEK293T cells; also: % is scaled to controls: 0 for no effect and ±100 for the full control effect; nearly all actives have a fitted effect of over 45% in size; luciferase light after 4 h
NS1 function inh: influenza NS1 inhibition. Potency, µM (titrated, usually from 46.1 µM), without a hit: at the highest dose activity, positive = more growth. S. cerevisiae slowed by influenza A NS1, growth recovery by OD600. 270,000 tested, 0.4% active; also: actives are rising curves; nearly all actives have a fitted effect of over 50% in size
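In this qHTS, NS1 from influenza A is expressed in budding yeast, where it slows growth. Cells are switched from glucose to 2% galactose medium (pH 6.0, -URA), treated with compound, and growth recovery is read at OD600.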
* marks the source's active call; other numbers are inactive results; ? = inconclusive; . = no result given; & = joins results of further samples; [ ] = dose if it differs, or a comment. Unless noted, calls follow the shape of the dose curve; as a rule, active means well fitted rising curve with a large enough effect; inconclusive means small, poorly fitted or top-dose-only effect; inactive means no such curve, though single readings can be large or run the other way. Potency is read from the fitted curve at half-maximal effect.

no.	canonical_smiles	RE007 growth inh	LASV entry inh	Cruzain inh noDet	Marburg entry inh	SARS PLP yeast	Cruzain Triton	StopGo reporter	NS1 function inh
1	Cn1c(CCn2ccccc2=O)nc2cc(NC(=O)COc3ccccc3)ccc21	-1%	.	.	.	-3%	.	-11%	-12%
2	CCCCC(=O)N1CCN(c2nc3c(C)c(C)ccc3s2)CC1	.	-14%[46.1 µM]	-6%	.	.	-0.9%	?	.
3	COc1cccc(C2(C)NC(=O)N(CC(=O)Nc3ccc(N4CCOCC4)cc3)C2=O)c1 (stereo not drawn)	-11%	10%	.	7%	5%	.	-17%	.
4	O=c1c2ccccc2nc(COc2ccccc2)n1/N=C/c1cn[nH]c1-c1ccccc1	-6%	?	3%	?	22%	-6.2%	-3%	13%
5	COc1ccc(NC(=O)c2ccccc2-c2ccccc2)cc1	3%	-28%	.	?	0%	.	-8%	-4%
6	C=CCN1C(=O)C(Cc2cccc(C)c2)SC1=Nc1ccc(C(=O)O)cc1 (stereo not drawn)	3%	0%	1%	?	-8%	0.0%	0%	-7%
7	Cc1cccc(NC(=O)c2ccc(C(=O)c3ccccc3)cc2)n1	-21%	-26%	.	-11%	.	.	?	.
8	CC(C)c1ccc(-c2nc(N3CCCC3)nc3n[nH]c(N)c23)cc1	-5%	?	-11%	?	5%	0.4%	-27%	0%
9	COc1ccc(Cl)cc1N(CC(=O)Nc1ccccc1SC)S(C)(=O)=O	0%	4%	?	-1%	-1%	-6.2%	-13%	-2%
10	O=C(CSCC(=O)N1CCCCC1)Nc1nc(-c2cccs2)cs1	-3%	.	-5%	.	-9%	-3.1%	3%	-95%
11	CC(C)c1ccc(NC(=S)N2CCCC(c3ccc(F)cc3)=N2)cc1	-4%	-24%[46.1 µM]	.	2.5µM*	-4%	.	-10%	3%
12	COc1cc(C2C(C#N)=C(N)Oc3n[nH]c(-c4cccnc4)c32)ccc1OCC(N)=O (stereo not drawn)	1%	.	.	.	1%	.	-19%	3%
13	Cc1nnc(SCc2ccc(Cl)cc2)c2cc3occc3n12	.	-4%[46.1 µM]	?	.	.	-5.0%	?	.
14	Cc1cc2ncn(CCCCOc3ccccc3)c2cc1C	-15%	16%[46.1 µM]	-2%&1%	?	23%	-11%&-16%	?	-30%
15	CN(C)S(=O)(=O)c1cccc(NC(=O)c2ccccc2OCc2ccc(F)cc2)c1	-21%	?	.	-12%[46.1 µM]	1%	.	-16%	-9%
16	CSc1nc2nccc(-c3ccc(-c4ccccc4)cc3)n2n1	5%	?	?	-19%	-5%	-2.3%	-24%	13%
17	CCn1c(C)nc2cc(C(=O)NNC(=S)NC(=O)c3ccccc3)ccc21	-7%	-12%	.	8%	1%	.	1%	1%
18	Nc1nn(-c2ccccc2)c2ccc([N+](=O)[O-])cc12	?	-3%	.	1%	-5%	.	19%	-30%
19	COc1ccc(OCCOc2ccc(S(=O)(=O)N3CCCC3)cc2[N+](=O)[O-])cc1	1%	-3%	.	?	5%[6.58 µM]	.	-23%	.
20	COc1cccc(C(=O)Nc2c3c(nn2-c2cccc(C)c2C)CS(=O)C3)c1OC (stereo not drawn)	-5%	-6%	1%	13%[46.1 µM]	-7%	0.0%	-17%	2%
21	COc1ccc(/C=C2\SC(=S)N(CCC(=O)NCCCN3CCOCC3)C2=O)cc1	-19%	0%	.	?	-1%	.	14%	-6%
22	COc1ccc(-c2nnc3n2-c2ccccc2SC3)cc1OC	-10%	-13%	-1%	1%	10%	-0.3%	-21%	?
23	CCS(=O)(=O)C1=NSC2=NC(=O)/C(=C\c3ccc(OS(=O)(=O)c4ccccc4)c(OC)c3)C(=N)N21	1%	.	.	.	-3%	.	2%	16%
24	CC1CCN(c2oc(-c3ccc(COc4ccccc4)o3)nc2C#N)CC1	.	?	-28%	?	.	-18%	?	.
25	COc1ccc(C(=O)N2CC3(CC(c4ccc(Cl)cc4)=NO3)C[C@H]2C(=O)NCC(N)=O)cc1 (stereo partly drawn)	-15%	.	?	.	3%	1.3%	-7%	8%
26	CCOc1ccc2c(c1)C(=NNC(=O)c1ccncc1)c1cc(OCC)ccc1-2	0%	6.3µM*	?	3.2µM*	-13%	-0.5%	-24%	-1%
27	O=C(CCc1n[nH]c(=O)[nH]c1=O)N1CCOCC1	11%	.	-8%	.	2%	-1.3%	-13%	0%
28	CC1=C(C(=O)Nc2ccccc2C(=O)NCCCN2CCN(C)CC2)SCCO1	-2%	25%[46.1 µM]	.	-4%[46.1 µM]	11%	.	-6%	6%
29	CCOc1ccc(OC(=O)c2cccc(S(=O)(=O)N3CCN(C)CC3)c2)cc1	0%	27%	.	15%	-4%	.	-23%	.
30	CCCc1nc2ccccc2c(=O)n1-c1cccc(OC)c1	19%	16%	1%	?	-23%	1.1%	-12%	-39%
31	Fc1ccccc1CSc1nnc(Cn2cnc3ccccc32)n1-c1ccccc1	5%	4%	5%	-10%	2%	0.2%	-26%	-8%
32	CCCCCCCCCCCCC/C=C/[C@@H](O)[C@@H](N)CO	-11%	.	?	?	.	-5.3%&1.6%	-27%	-20%
33	COc1ccc2[nH]c(C(=O)Nc3ccc(C)c(F)c3)cc2c1	6%	16%[46.1 µM]	.	?	0%	.	25%	-2%
34	CCOCCCN(C(=O)c1snc(C(N)=O)c1N)C(C(=O)NC(C)(C)C)c1ccc(Cl)cc1 (stereo not drawn)	4%	11%[46.1 µM]	.	?	0%	.	-24%	13%
35	CN(CC(=O)Nc1cccc(Cl)c1)S(=O)(=O)c1ccc2c(c1)n(C)c(=O)c(=O)n2C	22%	.	.	.	11%	.	-18%	0%
36	CCN(C(=O)c1ccc(NC(C)=O)cc1)c1ccccc1C	-7%	-9%	-3%	2%	9%	3.5%	-6%	-1%
37	CCN(CC)S(=O)(=O)c1ccc2oc(Nc3ccc4c(c3)OCCO4)nc2c1	4%	-21%	13%	?	2%	-1.8%	-3%	23%
38	CCn1ccnc1CN(C)C(=O)CCc1nnc(CCC2CCCCC2)o1	0%	-2%	.	9%[46.1 µM]	-1%	.	24%	-5%
39	Cc1ccc(OCCNC(=O)CNC(=O)c2ccc(C)cc2)cc1	-1%	2%[46.1 µM]	.	-2%[46.1 µM]	7%	.	7%	-2%
40	CCOc1ccc(N(CC(=O)NCc2ccc(OC)cc2)S(=O)(=O)c2c(C)noc2C)cc1	-6%	8%	-3%	-3%&6%	-7%	3.0%	7%	-2%
41	O=C(NCc1ccc2c(c1)OCO2)C12CN(Cc3ccccc3)CC1C(c1cccc([N+](=O)[O-])c1)=NO2 (stereo not drawn)	-4%	.	-14%	4%	-1%	3.0%	0%	13µM*
42	CCCCN(C(=O)C1CSC2(C)CCC(=O)N12)c1c(N)n(Cc2ccccc2)c(=O)[nH]c1=O (stereo not drawn)	-3%	-7%	.	?	0%	.	?	.
43	O=C(Nc1ccc(Cl)cc1)C1CC=CCC1C(=O)OCC(F)(F)C(F)F (stereo not drawn)	9%	-2%	-10%	0%	-2%	2.1%	-3%	-4%
44	Cc1cc(C)nc(NC(=S)Nc2ccc(F)cc2F)c1	-5%	3%	.	?	0%	.	20%	4%
45	Cc1ccc2c(CN3CCC(C(N)=O)CC3)cc(=O)oc2c1C	-1%	6%	.	3%[46.1 µM]	15%	.	14%	6%
46	CC1(C)CC(=O)C/C(=N\NC(=O)C2CC23CCC3)C1 (stereo not drawn)	12%	-5%	.	-2%[46.1 µM]	0%	.	8%	5%
47	O=S(=O)(Nc1ccc(Cl)cc1)c1ccc(N2CCOCC2)c(NC(=S)NCCN2CCOCC2)c1	-20%	?	.	7%[46.1 µM]	-2%	.	94%[activator]	.
48	N=c1c2c(n(Cc3ccc(Br)cc3)c3c1CCC3)CCCC2	-9%	?	-8%	?	-35%	-7.4%	40µM*	-5%
49	O=C(c1ccco1)N1CCN(C(=O)c2ccc(Cn3cc(Br)cn3)o2)CC1	-8%	?	-1%	1%	4%	2.3%	-21%	1%
50	O=C(Nc1cccc(S(=O)(=O)N2CCCC2)c1)c1cccnc1	3%	14%[46.1 µM]	.	?	-2%	.	-17%	16%
51	O=C1SCCC1NC(=O)C(c1ccccc1)c1ccccc1 (stereo not drawn)	1%	8%	.	0%[14.2 µM]	0%	.	-21%	6%
52	Cc1ccc(C)c(C(=O)c2ccccc2NC(=O)c2ccccn2)c1	0%	-29%[46.1 µM]	.	?	-6%	.	-14%	-2%
53	COC(=O)c1cc2sc(Cl)cc2n1CC(=O)Nc1cccc(SC)c1	-1%	-16%	25µM*	-25%	3%	-16%	.	-7%
54	CCC(C)NC(=O)c1ccc2nc(Cc3ccccc3)oc2c1 (stereo not drawn)	.	?	-5%	.	.	-1.6%	-6%	.
55	N=C(N)SCCc1cccc(CCSC(=N)N)c1	13%[18.4 µM]	.	-7%	-32%&-32%&-32%&-32%	.	-2.3%	-20%	5%
56	COc1ccc(S(=O)(=O)N2CCN(c3ccccn3)CC2)cc1[N+](=O)[O-]	-8%	.	.	.	3%	.	-11%	1%
57	O=c1[nH]c(CN2CCN(S(=O)(=O)c3ccccc3C(F)(F)F)CC2)nc2sc3c(c12)CCCC3	1%	?	1%	?	7%	-5.6%	-16%	15%
58	CN(C)S(=O)(=O)c1cccc(NC(=S)N/N=C/C2CC=CCC2)c1 (stereo not drawn)	-2%	.	.	.	-2%	.	32%[activator]	11%
59	CCc1nnc(NC(=O)c2cc(C)nc3ccccc23)s1	-3%	-2%	.	?	0%	.	3%	.

Bioassay records deposited in PubChem BioAssay by National Center for Advancing Translational Sciences (NCATS).
